LANA-H2B inh = blocks KSHV LANA binding to histone H2A/H2B; cell-free LANA-H2A/H2B peptide, fluorescence polarization; 320,000 compounds, 0.6% hits; inhibition, % (no concentration beside the values); Q9QR71; in the data active means inhibition mostly above about 10%, no sharp cut-off; inactive means mostly below about 6.7%;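 further: stock transfer was 7.5 nL into about 10 µL; 0% = median of vehicle wells and 100% = median of positive control wells; one replicate is shown; the record names a cut of 25% in any replicate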
ALR inh = blocks human ALR sulfhydryl oxidase activity | inhibition, % (test concentration not listed) | P55789 | purified ALR, DTT oxidation, H2O2 HRP-luminol luminescence | 290,000 compounds, 3.8% hits;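 active means mean and each replicate at 75% or more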;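 further: stock transfer was 7.5 nL into about 7.5 µL; 0% = neutral wells and 100% = wells with inactivated enzyme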
Target sequence (P55789 whole entry, looked up): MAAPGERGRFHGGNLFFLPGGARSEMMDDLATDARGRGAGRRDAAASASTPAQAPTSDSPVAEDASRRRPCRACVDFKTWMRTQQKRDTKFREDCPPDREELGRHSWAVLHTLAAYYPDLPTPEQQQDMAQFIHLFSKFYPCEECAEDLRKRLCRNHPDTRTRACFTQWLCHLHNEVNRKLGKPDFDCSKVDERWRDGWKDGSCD
FGF22 binding = FGF22 (human) thermal shift binding; Q9HCT0; recombinant FGF22 thermal shift, SYPRO orange fluorescence; percent of sucrose octasulfate shift, DMSO zero; calls only at 9.99 µM; 340,000 compounds, 1.5% hits; AID 651658;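 active means melting point raised past a set limit in the mean and every replicate; three in four hits are not shown here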
HNF4A DNA FP = change in binding of human HNF4 alpha to DNA. AID 1224865. HNF4a-FITC DNA binding, fluorescence polarization, 1 h. activity change, % at 10 µM. 360,000 compounds, 0.3% hits; in the data active means activity change above about 30%, passing the limit was not always enough;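 further: controls were the assay level and a saturating level of protein; the project sought stronger binding though the title names inhibitors; some compounds called inactive have numbers as strong as hits; positive values seem to mean higher polarization but the record does not say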
Target sequence (P41235 whole entry, looked up): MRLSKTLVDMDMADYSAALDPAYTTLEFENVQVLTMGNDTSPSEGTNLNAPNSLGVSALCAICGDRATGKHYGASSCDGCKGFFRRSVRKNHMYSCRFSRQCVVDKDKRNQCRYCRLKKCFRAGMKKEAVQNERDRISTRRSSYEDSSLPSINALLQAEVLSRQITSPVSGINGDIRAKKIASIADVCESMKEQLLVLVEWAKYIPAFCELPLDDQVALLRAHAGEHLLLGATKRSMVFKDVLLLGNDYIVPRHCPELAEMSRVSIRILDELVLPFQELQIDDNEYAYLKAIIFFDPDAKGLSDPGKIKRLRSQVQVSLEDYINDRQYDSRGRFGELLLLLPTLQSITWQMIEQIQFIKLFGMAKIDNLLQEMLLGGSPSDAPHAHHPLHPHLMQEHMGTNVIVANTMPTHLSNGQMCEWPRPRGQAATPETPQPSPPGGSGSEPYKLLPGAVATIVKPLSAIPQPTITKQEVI
UCH37 inh = blocks the human deubiquitinase UCH37; purified proteasome/UCH37, Ub-AMC cleavage fluorescence; inhibition, % (test concentration not listed); 330,000 compounds, 0.33% hits; AID 588478;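 active means mean of two replicates above 20%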;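 further: 0% = compound-free wells with enzyme and 100% = wells lacking proteasome; stock transfer was 100 nL into about 20 µL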
Target sequence (Q9Y5K5 whole entry, looked up): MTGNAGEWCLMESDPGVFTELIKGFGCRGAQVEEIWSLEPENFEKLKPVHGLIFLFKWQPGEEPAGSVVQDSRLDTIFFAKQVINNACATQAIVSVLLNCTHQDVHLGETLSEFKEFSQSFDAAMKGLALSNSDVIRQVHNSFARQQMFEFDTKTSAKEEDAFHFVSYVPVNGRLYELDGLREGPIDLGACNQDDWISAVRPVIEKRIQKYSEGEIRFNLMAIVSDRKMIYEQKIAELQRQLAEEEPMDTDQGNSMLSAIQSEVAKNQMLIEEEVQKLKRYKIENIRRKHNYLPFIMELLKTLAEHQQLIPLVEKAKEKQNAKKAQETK
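System: Proteasome-associated human UCH37 deubiquitinase; Input: 0.15 nM proteasome in added enzyme buffer; Also added: Ub-AMC substrate from 1 µM stock; Incubation: 30 min compound-proteasome preincubation then 25 min substrate reaction, room temperature; Detection: fluorescence, ex 355 nm, em 460 nm; Read-out: % inhibition of Ub-AMC cleavage fluorescence; Benchmarks: no-proteasome and no-compound wells.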
E coli growth = inhibitors of Escherichia coli growth. OD600, 23 h; stronger effect = lower value. OD600 absorbance (test concentration not listed). 330,000 compounds, 0.21% hits. AID 1053175;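 active means OD600 absorbance below the run mean of sample wells minus 3.6 SD, in any replicate, cut at about 0.56 in these data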;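 further: stock transfer was 300 nL into about 60 µL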
Beta2AR agonist = agonists of human beta-2 adrenergic receptor inducing internalization; P07550; Am2.2-beta2AR cells, FAP receptor internalization, flow cytometry; reference of the scale not given here; response, % (concentration not given with the values); 340,000 compounds, 0.43% hits; AID 504454;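 active means response above a set limit, near 3 SD of response in nonfluorescent compounds, cut at about 42% in these data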;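 further: stock transfer was 100 nL into about 11 µL; a reference agonist was the positive control; negative values mostly stem from fluorescent compounds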
The depositor's hits bear a star; i = inactive; . = no result given. These rows are one share of the data, so the mix of outcomes need not match the whole.

SMILES | LANA-H2B inh | ALR inh | FGF22 binding | HNF4A DNA FP | UCH37 inh | E coli growth | Beta2AR agonist
CCC1(c2ccccc2)NC(=O)N(CC(=O)NNC(=O)c2ccoc2C)C1=O (stereo unspecified) | 3.8 | 5.0 | i | 2.1 | 7.2 | 0.711 | -2.0
C=CCCN(Cc1ccccc1)S(=O)(=O)c1ccccc1Br | 3.1 | 2.5 | . | -2.5 | 0.1 | 0.649 | 8.1
CCn1c(=O)c(C(=O)NCCN2CCCCC2)c(O)c2ccccc21 | 5.2 | -16.5 | . | 1.7 | -0.9 | 0.684 | 0.7
Cc1nc([N+](=O)[O-])c(Br)n1CC(=O)c1ccc(Cl)cc1 | -11.2 | 97.2* | . | 2.7 | 4.8 | 0.704 | 24.6
NS(=O)(=O)c1ccc(CCNC(=O)C(=O)NCC2OCCN2S(=O)(=O)c2ccc(Cl)cc2)cc1 (stereo unspecified) | -0.7 | -5.0 | i | -0.3 | 1.9 | 0.731 | 0.6
CCN(CC)c1ccc(/C=N/N2CCN(c3ccccn3)CC2)cc1 | -0.2 | 32.7 | i | 2.1 | . | . | -2.7
CC(C)(C)c1ccc(C(=O)NNC(=O)c2ccccc2Br)cc1 | 0.8 | -1.5 | . | 8.3 | 1.9 | 0.662 | 12.5
COc1ccc(-c2nnc(SCC(C)C)o2)cc1 | 0.8 | . | i | 2.5 | 3.8 | 0.669 | -0.1
Cc1cc(=O)oc2cc(OCc3ccc(C(=O)N4CCN(c5ccc([N+](=O)[O-])cc5)CC4)cc3)ccc12 | . | . | i | 0.5 | 0.3 | 0.719 | -11.4
N#CC1=C(N)Nc2ncnn2C1c1ccc([N+](=O)[O-])cc1 (stereo unspecified) | 2.9 | 16.2 | i | 5.5 | 5.6 | 0.707 | -9.6
C=CCn1c(SCC(=O)NC(=O)c2cccc([N+](=O)[O-])c2)nnc1-c1ccccc1F | 1.0 | . | . | -1.5 | 3.4 | 0.708 | 0.0
O=C(NCC1CCCO1)C1CCCN(S(=O)(=O)c2ccc(Br)cc2)C1 (stereo unspecified) | 0.1 | -0.4 | i | -0.4 | -1.7 | 0.699 | -6.2
COc1nc(Nc2ccc(C(C)=O)cc2)nc(OC)n1 | 0.0 | 1.9 | . | 17.2 | 3.7 | 0.725 | -9.3
CCOc1ccccc1CN1CCC(N2CCOCC2)CC1 | -4.3 | . | i | -1.3 | 1.2 | 0.697 | -1.4
CCC(=O)Nc1ccc(N2CCN(C(=O)c3ccco3)CC2)c(Cl)c1 | . | . | i | 3.8 | 2.0 | 0.649 | 32.5
COc1ccc(NS(=O)(=O)c2ccc(-c3coc(C)n3)cc2)cc1OC | 5.3 | 2.7 | i | -0.4 | 1.0 | 0.673 | 5.5
Cc1ccc(OCC(=O)Nc2nnc(-c3ccco3)s2)cc1 | 3.3 | 49.9 | i | 2.5 | -3.4 | 0.652 | -0.6
COc1cccc(NC(=O)N2C3CCCC2CC(NC(=O)C2CC2)C3)c1 (stereo unspecified) | -0.4 | . | i | -0.9 | 1.2 | 0.687 | 10.4
O=C1NCCN1c1ccccc1 | . | . | i | -0.8 | 0.1 | 0.695 | -4.8
Cn1c(SCC(=O)NC2CCCC2)nnc1C(F)(F)F | 0.3 | -1.9 | i | 2.4 | 1.0 | 0.668 | 1.4
O=C(NCc1ccco1)c1ccc(=O)oc1 | -1.3 | -4.0 | . | 0.9 | 10.5 | 0.708 | -3.8
CN(C)CC(=O)Nc1ccc2cn[nH]c2c1 | 1.1 | -10.7 | i | -3.2 | 3.6 | 0.692 | 2.0
Cc1cc2oc(=O)cc(CN3CCOCC3)c2cc1C | 1.0 | -3.1 | . | 1.3 | 3.1 | 0.694 | -1.9
COc1ccc2c(CC(=O)N3CCc4ccccc43)coc2c1 | -0.9 | -3.9 | . | -0.8 | 2.1 | 0.686 | -12.8
CN(C)CCCOC(=O)N1c2ccccc2C=Cc2ccccc21 | 2.4 | -4.9 | i | 2.4 | 0.7 | 0.64 | -1.1
CC(C)(C)NC(=O)c1ccc2nccnc2c1 | -2.0 | -12.0 | . | 0.2 | 3.4 | 0.66 | 3.1
COc1ccccc1C(=O)NCCC(=O)NCCC12CC3CC(CC(C3)C1)C2 | -1.3 | 0.4 | i | -0.6 | -0.6 | 0.709 | -2.8
COc1ccc(C2/C(=C(/O)c3ccccc3)C(=O)C(=O)N2c2ccccn2)c(OC)c1 (stereo unspecified) | 4.1 | 2.9 | . | 2.5 | 10.3 | 0.707 | 5.8
O=C(CN1C(=O)COc2ccccc21)Nc1ccc(F)cc1 | -4.4 | -18.0 | i | 3.1 | 4.0 | 0.685 | -0.3
COc1ccccc1Oc1ccc(N/C=C/C(=O)c2ccco2)cc1 | 0.3 | -2.8 | i | -1.8 | -2.1 | 0.673 | 5.4
CCOC(=O)c1sc2ncn(C(C)C(=O)OC)c(=O)c2c1C (stereo unspecified) | 4.0 | -2.1 | . | -4.2 | 3.3 | 0.697 | 9.2
O=C(CSc1ncnc2sc3c(c12)CCCC3)N1CCC(c2noc3ccc(F)cc23)CC1 | 0.1 | -2.1 | i | 1.5 | 0.5 | 0.691 | -2.9
O=S(=O)(CCN1CCCC1)NCCNS(=O)(=O)c1ccc(F)cc1Br | . | . | i | -0.1 | . | . | -3.3
COCC1CCCN(Cc2nc(Cc3ccccc3)no2)C1 (stereo unspecified) | -2.9 | -7.2 | i | -1.2 | 2.5 | 0.705 | 5.0
O=C(c1ccccc1S(=O)(=O)NCc1ccccc1)N1CCCCC1 | -1.2 | 13.4 | i | 3.3 | 4.1 | 0.739 | 10.5
C=CCOC(=O)C(=O)/C=C/c1c(C)n(C)n(-c2ccccc2)c1=O | 4.6 | 26.6 | i | -2.3 | 6.6 | . | -1.9
COc1ccc([N+](=O)[O-])cc1C(=O)C(=O)c1ccccc1 | -3.1 | 3.3 | i | 2.7 | 2.5 | 0.687 | -5.0
COc1cccc(OCc2cc(/C=N/NC(=O)c3nc(Cl)c(Cl)c(N)c3Cl)ccc2OC)c1 | -2.5 | -11.4 | . | 7.5 | . | . | 11.3
COc1cc2c(cc1NC(=O)COC(=O)[C@@H](NC(=O)c1ccccc1F)C(C)C)oc1ccccc12 | -6.1 | . | i | 2.3 | 3.1 | 0.737 | -9.0
Cc1ccc(C)c(NC(=O)COc2cccc3c2CCN(Cc2ccccc2)C3=O)c1 | -4.5 | -8.2 | i | -2.2 | 4.4 | 0.712 | 1.1
O=[N+]([O-])c1cccc(-c2ccc3nnc(SCc4ccccn4)n3n2)c1 | 3.3 | -9.8 | i | 0.7 | 0.7 | 0.724 | 0.8
O=C1NC(=O)C2C1C(c1ccc([N+](=O)[O-])cc1)=NN2Cc1ccccc1 (stereo unspecified) | -0.7 | . | i | 11.6 | 3.7 | 0.692 | 3.6
O=C(CSc1cccc2cccnc12)OCC(=O)c1ccccc1 | -2.4 | -9.3 | . | -1.7 | -31.9 | 0.688 | 2.5
Cc1ccc([N+](=O)[O-])cc1NC(=O)CN1CCC(C)CC1 | -0.2 | . | . | 2.8 | 3.3 | 0.656 | -10.0
CCc1nnc(NS(=O)(=O)c2ccc(NC(=O)c3ccccc3)cc2)s1 | -2.8 | . | i | -1.2 | 1.4 | 0.649 | 2.8
O=C(NCc1ccc2c(c1)OCO2)NC1CCCCC1 | -1.0 | -6.1 | i | 1.3 | -0.9 | 0.697 | -4.1
O=C(Nc1cccc(C(=O)N2CCCCC2)c1)C1CCCC1 | . | . | i | 1.5 | . | . | -10.3
Fc1ccc(NC(=S)N2CCCN(c3ccc(C(F)(F)F)cn3)CC2)c(F)c1 | -0.1 | -6.0 | . | -2.2 | 5.5 | 0.673 | -0.7
CCOC(=O)c1c(C)[nH]c(C)c1C(=O)COC(=O)c1cccc(C)c1O | -6.6 | 9.2 | . | -0.7 | 4.4 | 0.656 | -1.6
Cc1ccc(N2CC(C(=O)NCc3cccnc3)CC2=O)cc1 (stereo unspecified) | -3.6 | -1.2 | . | -2.1 | 0.3 | 0.618 | 1.1
Next section
SMILES | LANA-H2B inh | ALR inh | FGF22 binding | HNF4A DNA FP | UCH37 inh | E coli growth | Beta2AR agonist
CC(C)(C)c1ccc(-n2ncc3c2CCCC3NC(=O)CCCn2cncn2)cc1 (stereo unspecified) | . | . | i | -0.2 | 5.4 | 0.64 | -1.4
CC(=O)c1cccc(NC(=O)COC(=O)CCNS(=O)(=O)c2ccccc2)c1 | -3.1 | -2.6 | i | 0.7 | 0.3 | 0.704 | 2.8
O=C(NCCOC(=O)c1ccccc1C(=O)OCCNC(=O)c1cccnc1)c1cccnc1 | -2.2 | -9.8 | . | 0.6 | 3.4 | 0.731 | 0.7
O=C(Nc1ccc2ccccc2c1)c1cccc(F)c1 | -0.6 | -111.8 | i | -1.0 | -4.7 | 0.643 | 7.0
C=CCN1C(=O)c2ccc(C(=O)N3CCN(S(=O)(=O)c4cccc(Cl)c4)CC3)cc2C1=O | 1.5 | -15.0 | i | 0.7 | . | . | -3.4
COCCn1c(C)cc(C(=O)CSc2nc3ccccc3s2)c1C | -2.5 | 7.8 | . | 2.5 | 2.6 | 0.641 | 11.5
COc1ccc(CNC(=S)Nc2ccccc2F)cc1 | 0.0 | 1.4 | i | 0.1 | 2.9 | 0.642 | -4.3
CCOc1ccc(S(=O)(=O)N(C)CC(=O)N2CCN(CC)CC2)cc1 | 4.2 | 9.2 | . | 4.9 | 2.0 | 0.699 | -5.6
CCOC(=O)NN1C(=O)c2ccccc2NC1c1ccccc1 (stereo unspecified) | 2.2 | -8.8 | . | 0.9 | -457.4 | 0.656 | -6.5
O=C(O)c1cc(S(=O)(=O)Nc2cccc(S(=O)(=O)N3CCCC3)c2)ccc1Cl | . | . | i | -2.8 | 1.6 | 0.621 | 2.1

2 of these compounds in another layout.
O=C(O)c1cc(S(=O)(=O)Nc2cccc(S(=O)(=O)N3CCCC3)c2)ccc1Cl
  LANA-H2B inh = .; ALR inh = .; FGF22 binding = i; HNF4A DNA FP = -2.8; UCH37 inh = 1.6; E coli growth = 0.621; Beta2AR agonist = 2.1
COc1nc(Nc2ccc(C(C)=O)cc2)nc(OC)n1
  LANA-H2B inh = 0.0; ALR inh = 1.9; FGF22 binding = .; HNF4A DNA FP = 17.2; UCH37 inh = 3.7; E coli growth = 0.725; Beta2AR agonist = -9.3

Next compounds.
SMILES | LANA-H2B inh | ALR inh | FGF22 binding | HNF4A DNA FP | UCH37 inh | E coli growth | Beta2AR agonist
CCNC(=O)C1Cc2cc(S(=O)(=O)N3CCCC3)ccc2N1C(C)=O (stereo unspecified) | 5.0 | -2.9 | i | 1.2 | 5.5 | 0.712 | -5.9
COc1ccc(S(=O)(=O)N2CCC(C(=O)N3CCCC3)CC2)cc1C | 0.5 | 1.3 | i | -0.8 | 0.4 | 0.708 | -4.7
C=CCc1cc(CN2CC(C)OC(C)C2)c(O)c(OC)c1 (stereo unspecified) | . | . | i | -2.7 | 5.6 | 0.687 | 7.2
N#CC1=C(SCC(=O)c2ccc(Cl)cc2)NC2=C(C(=O)CCC2)C1c1ccco1 (stereo unspecified) | 10.9 | -7.1 | . | 1.3 | 1.5 | 0.674 | 0.2
CCOC(=O)C(NC(=O)Nc1ncccn1)(Oc1ccccc1)C(F)(F)F (stereo unspecified) | -2.0 | -6.4 | . | -1.4 | 2.6 | 0.74 | 8.7
Cc1ccc(C2=[N+]([O-])C(C)(C)CC2)cc1 | 7.9 | 0.0 | . | -3.4 | -3.9 | 0.695 | 5.7
CCn1c(SCC(=O)N2CCN(c3ccc(F)cc3)CC2)nnc1-c1ccncc1 | . | . | . | 1.0 | 3.1 | 0.662 | 0.4
O=C1CCCC(=O)N1c1ccc(NCCOCCO)c([N+](=O)[O-])c1 | 0.5 | 3.7 | i | -3.8 | 4.2 | 0.688 | 0.5
CCOc1ccc(/C=N/NC(=O)Cc2cccs2)cc1 | 2.9 | -1.8 | i | 1.9 | . | . | -5.8
CCOC(=O)C(=O)NNc1ccc(Cl)cc1 | -6.2 | 100.3* | i | -2.2 | -1.0 | 0.66 | 8.2

Screening results: PubChem BioAssay, several laboratories
